MARV entry inh: Marburg virus entry inhibition; Marburg virus pseudotyped entry inhibition, cell reporter; control for the full effect not named in the record; about a third of the inactives were read at about 46 µM; Potency, µM (top dose mostly 37.8 µM), for the others: top-dose activity change, negative = inhibition, hits mostly inhibitors; actives 1.8% (n = 300,000); AID 540276; active = well fitted inhibition curve with a large enough effect; inconclusive = small, poorly fitted or top-dose-only effect, or effect the other way; inactive = flat fitted curve, though single readings scatter; tested in HEK293 cells; about a fifth of its hits are not listed in these tables; note: % is set by controls: 0 for no effect and ±100 for the full control effect; luciferase read-out
RE007 growth inh: less growth of the S. pombe RE007 Vpr strain; S. pombe RE007 Vpr strain, BacTiter-Glo ATP luminescence, 24 h; control for the full effect not named in the record; Potency, µM (top dose mostly 92.2 µM), for inactives: at the top dose activity change, negative = less growth; actives 0.21% (n = 360,000); AID 651644; active = well fitted falling curve with a large enough effect; inconclusive = small, poorly fitted or top-dose-only effect; inactive = no such curve, though single readings can be large or run the other way;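 note: % is set by controls: 0 for no effect and ±100 for the full control effect; nearly all actives have a fitted effect of over 50% in size; the assay follows cell death caused by Vpr and the record does not say whether a fall means rescue or toxicity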
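Fission yeast RE007 carrying one integrated HIV-1 vpr copy, seeded at OD 0.01 in PMG+AL medium with 23 nL pinned compound. Grown 24 h at 30 degrees; viability read by BacTiter-Glo luminescence after 5 min.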
Cruzain Triton: inhibitors of Trypanosoma cruzi cruzain with detergent | P25779 | purified cruzain, Z-FR-AMC fluorescence, 0.01% Triton | Potency, µM, for the others: max response, negative = inhibition, usual class: inhibitors | actives 0.43% (n = 200,000) | AID 1478;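 note: plate controls were neutral wells for no effect and buffer without enzyme for full effect; nearly all actives have a fitted effect of over 40% in size; top concentration of the series not given in the record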
Target sequence (P25779 123-467 limits assumed): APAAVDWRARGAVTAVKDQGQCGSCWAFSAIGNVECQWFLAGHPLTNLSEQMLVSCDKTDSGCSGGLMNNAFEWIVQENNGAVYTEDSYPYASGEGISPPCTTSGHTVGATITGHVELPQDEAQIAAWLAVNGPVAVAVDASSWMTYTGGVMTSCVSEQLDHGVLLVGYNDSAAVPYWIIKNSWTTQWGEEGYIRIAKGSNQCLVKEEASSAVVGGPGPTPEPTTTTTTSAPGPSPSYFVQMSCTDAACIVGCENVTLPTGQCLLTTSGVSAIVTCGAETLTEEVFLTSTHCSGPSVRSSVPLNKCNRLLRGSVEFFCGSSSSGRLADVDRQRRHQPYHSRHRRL
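Cruzain (1.5 nM) preincubated 15 min at RT with compound in 100 mM sodium acetate pH 5.5, 5 mM DTT, 0.01% Triton X-100. Reaction started with 2 uM Z-FR-AMC; AMC fluorescence (ex 360/em 450 nm) change over 60 s gave rate.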
2A StopGo: FMDV 2A StopGo reporter, luciferase signal | Potency, µM (highest dose often 57.9 µM), without a hit: top-dose signal change, negative = less light | actives 1.2% (n = 410,000) | human cells with a luciferase reporter of 2A StopGo recoding; control for the full effect not named in the record; active = well fitted falling curve with a large enough effect; inconclusive = small, poorly fitted or top-dose-only effect; inactive = no such curve, though single readings can be large or run the other way; tested in HEK293T cells; note: % is set by controls: 0 for no effect and ±100 for the full control effect; nearly all actives have a fitted effect of over 45% in size; luciferase light after 4 h
Cruzain inh noDet: inhibitors of Trypanosoma cruzi cruzain without detergent. P25779. purified cruzain, Z-FR-AMC fluorescence, no detergent. Potency, µM, for the others: max response, negative = inhibition, most hits filed as inhibitors. actives 2.3% (n = 200,000). AID 1476;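 note: plate controls were enzyme without inhibitor for no effect and buffer without enzyme for full effect; nearly all actives have a fitted effect of over 40% in size; top concentration of the series not given in the record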
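Purified cruzain at 1.5 nM, pre-incubated 15 min with compound at room temperature in 100 mM sodium acetate pH 5.5, 5 mM DTT, 0.00005% Triton X-100. Reaction started with 2 uM Z-FR-AMC; AMC fluorescence increase over 60 s gives rate.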
SARS PLpro yeast: SARS-CoV PLP inhibition in yeast. S. cerevisiae expressing SARS-CoV PLpro, growth rescue; control for the full effect not named in the record. Potency, µM (top dose mostly 32.9 µM), for inactives: at the highest dose activity, positive = growth rescue. actives 0.19% (n = 330,000); active means well fitted rising curve with a large enough effect; inconclusive means small, poorly fitted or top-dose-only effect; inactive means no such curve, though single readings can be large or run the other way; note: 0% is about no effect; nearly all actives have a fitted effect of over 55% in size; growth read by luminescence after 48 h
NS1 inh: blocks influenza NS1 protein function. S. cerevisiae slowed by influenza A NS1, growth recovery by OD600. Potency, µM (highest dose often 46.1 µM), inactives show at the highest dose activity, positive = more growth. actives 0.4% (n = 270,000). AID 2326; active means well fitted rising curve with a large enough effect; inconclusive means small, poorly fitted or top-dose-only effect; inactive means no such curve, though single readings can be large or run the other way; note: nearly all actives have a fitted effect of over 50% in size
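Recovery from NS1-induced slow growth read by OD600 in budding yeast switched to galactose assay medium (pH 6.0, -URA) at 1:100 dilution. Compound 23 nl per well; the matching strain lacking NS1 serves as control.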
Lassa entry inh: blocks Lassa virus binding to or entry into cells; Lassa virus pseudotype entry inhibition, cell reporter; control for the full effect not named in the record; Potency, µM (series often up to 37.9 µM), inactives show at the top dose activity change, negative = inhibition, most hits filed as inhibitors; actives 1.2% (n = 300,000); active means well fitted inhibition curve with a large enough effect; inconclusive means small, poorly fitted or top-dose-only effect, or effect the other way; inactive means flat fitted curve, though single readings scatter; tested in HEK293 cells; note: % is set by controls: 0 for no effect and ±100 for the full control effect; nearly all actives have a fitted effect of over 50% in size; luciferase read-out
Starred values were filed as active, the others as inactive; ? = inconclusive; . = no result given; & = joins results of further samples; [ ] = another dose, or the depositor's remark. Unless noted, calls come from the whole dose curve; as a rule, active = well fitted curve in the direction sought with a large enough effect; inconclusive = small, poorly fitted or top-dose-only effect, or another doubt; inactive = no such curve, though single readings can be large; an effect the other way counts as inactive or inconclusive. Potency is the fitted concentration of half-maximal effect.

SMILES	MARV entry inh	RE007 growth inh	Cruzain Triton	2A StopGo	Cruzain inh noDet	SARS PLpro yeast	NS1 inh	Lassa entry inh
CCc1cc(=O)[nH]c(SCc2nc(-c3ccccc3)no2)n1	.	.	-2.6%	-4%	-1%	.	.	-3%[46.1 µM]
CN(Cc1ccccc1)C(=O)CCCn1c(=O)[nH]c2cc(Cl)ccc2c1=O	5%[46.1 µM]	16%	1.4%	?	-3%	-4%	-3%	-17%
CCC1S/C(=N\S(=O)(=O)c2cccs2)N(C2CCCCC2)C1=O (stereo unspecified)	?	-5%	-2.2%	-20%	3%	-5%	6%	10%
Cc1ccc(OCc2cn3cccnc3n2)cc1	-34%	-7%	-3.6%	23%	6%	3%	?	21%
CCC1(c2ccc(Cl)cc2)NC(=O)N(CC(=O)N2CCN(C(=O)c3ccco3)CC2)C1=O (stereo unspecified)	19%	0%	.	-23%	.	-9%	.	?
Nc1ccc(-c2nnc(-c3ccccc3)o2)cc1	?	?	.	17%	.	-6%	-2%	?
COC(=O)c1cc(S(=O)(=O)Nc2nn(C)c3ccccc23)oc1C	13%	-12%	.	42%[activator]	.	1%	2%	-3%
CC(C)N1CCc2c(sc(NC(=O)c3ccco3)c2C(N)=O)C1	15%[46.1 µM]	-9%	.	0%	.	3%	26%	28%[46.1 µM]
O=C(Nc1ncc2c(n1)-c1ccccc1OC2)c1ccc(F)cc1	-14%[46.1 µM]	-10%	.	6%	.	-2%	.	3%
COc1ccc(N/C=C/C(=O)c2ccccc2)cc1	.	3%	.	-80%	.	-1%	-22%	.
Cc1ccc(O)c(CNc2ccccn2)c1	14%	7%	2.9%	56%[activator]	-1%	11%	0%	-10%
Cc1ccc(CN(C(=O)COc2ccc([N+](=O)[O-])cc2)C2CCS(=O)(=O)C2)o1 (stereo unspecified)	6%[46.1 µM]	8%	.	-6%	.	5%	15%	-19%[46.1 µM]
Cc1c(NC(=O)C2Cc3ccccc3CN2C(=O)c2ccco2)c(=O)n(-c2ccccc2)n1C (stereo unspecified)	-2%&-1%	-6%	-0.2%	-18%	-4%	9%	4%	16%
COP(=O)(OC)C(NS(=O)(=O)c1ccccc1)C(Cl)(Cl)Cl (stereo unspecified)	5%[46.1 µM]	2%	.	-6%	.	1%	5%	?
COc1ccc2c(c1)CC/C(=C\c1ccc(C)o1)C2=O	.	17%	.	62%[activator]	.	-6%	-12%	.
Cc1cc(CNC(=O)c2cccc([N+](=O)[O-])c2C)c2ccccc2n1	?	-18%	.	14µM*	.	3%	.	?
CCOc1ccc(NC(=O)CN2C(=O)S/C(=C/c3cccn3C)C2=O)cc1	?	16%	.	16%	.	1%	-5%	?
Cc1ccc(NC(=O)CSc2nnc(C)c(=O)[nH]2)cc1C	21%[46.1 µM]	5%	.	-1%	.	1%	.	4%
CCN(CC)c1ccc(CN(C(=O)c2cccs2)C2CCS(=O)(=O)C2)cc1 (stereo unspecified)	0%[46.1 µM]	-6%	.	-4%	.	0%	-3%	?
Cn1c(O)c(C2=c3ccccc3=NC2=O)sc1=Nc1ccc(Cl)cc1	?	-4%	-9.8%	19%	25µM*	5%	11%	-13%
CCN1CCN(c2cc(C)c3cc(NC(=S)NCc4cccs4)ccc3n2)CC1	.	-17%	.	39%[activator]	.	0%	-1%	.
Cc1ccc(N(CC(=O)NC(C)C)C(=O)CCC(=O)Nc2nccs2)cc1	.	-5%	.	-9%	.	13%	2%	.
CCOc1ccc(N(C)S(=O)(=O)c2cc(-c3cc(C)no3)ccc2C(C)C)cc1	.	-2%	.	-26%	.	1%	9%	.
Cc1nc2ccc(NC(=S)N3CCCC3)cc2nc1C	.	-3%	.	-4%	.	-1%	4%	.
COCCOc1cc(N(CC(=O)N(C)C)S(=O)(=O)c2ccccc2)c(Cl)cc1Cl	-3%[46.1 µM]	-20%	.	7%	.	1%	2%	-16%
CN(C)C(=O)COc1ncnc2sc(-c3ccccc3)cc12	.	4%	.	25%	.	-4%	-3%	.
O=C(COC(=O)c1cc(S(=O)(=O)N2CCOCC2)ccc1F)NCc1ccco1	-6%	-9%	.	-8%	.	6%	3%	1%
Cc1ccc2c(CC(=O)N(C)c3c(N)n(Cc4ccccc4)c(=O)[nH]c3=O)coc2c1	-3%	-3%	.	-14%	.	-4%	.	-2%
Cc1ccc(/C=C/C(=O)Nc2nnc(SCc3ccc(C#N)cc3)s2)o1	?	4%	-3.0%	12%	-23%	-27%	-2%	6%
CC1(C)CC(=O)C(C(=S)Nc2ccc(F)cc2)=C(NCCN2CCOCC2)C1	-23%	17%	-5.6%	-3%	8%	20%	-3%	-2%
COc1cccc(Cn2cc(C(=O)NCCN(C)C)nn2)c1	.	0%	.	11%	.	0%	-4%	.
Cc1ccc(-n2cc[nH]c2=S)cc1C	-2%	6%	-1.4%	-3%	-8%	11%	15%	?
C/C=C\C=C\C(=O)Nc1cccc(C2=NOC3(C2)C[C@@H](C(N)=O)N(C(=O)C(c2ccccc2)c2ccccc2)C3)c1 (stereo partly specified)	.	-5%	.	-8%	.	0%	3%	.
N#Cc1ccc(Cl)cc1NC(=O)COC(=O)c1ccc2c(c1)OCCO2	2%	2%	-3.0%	-8%	-7%	1%	-2%	-7%
N#Cc1cccc(NC(=O)COC(=O)c2ccccc2Sc2ccccc2C#N)c1	?	-8%	-4.4%	-17%	?	3%	18%	?
Cc1cc(C)c(OCC(=O)OC(C)C(=O)NC2CC2)c(C)c1 (stereo unspecified)	.	7%	.	-20%	.	-2%	-17%	.
COc1cc(-c2nc(-c3ccncc3)no2)cc(OC)c1OC	?	10%	5.2%	.	-7%	4%	4%	-21%
Cc1cc(=O)oc2cc(OCc3cc4c(cc3Cl)OCO4)ccc12	?	12%	2.3%	-10%	-18%	1%	-3%	-17%
CCc1nn(CC(=O)NCCCN2CCN(C)CC2)c(=O)c2cc3sc(C)cc3n12	.	-6%	.	-16%	.	0%	-6%	.
CCN1C(=O)C(CC(=O)Nc2ccc(OC)cc2)N(Cc2cccs2)C1=S (stereo unspecified)	4%	3%	-2.7%	15%	0%	-15%	15%	0%
CCOC(=O)C1C2C=CC3(CN(Cc4ccccc4)C(=O)C13)O2 (stereo unspecified)	1%	-29%	.	-5%	.	-4%	.	10%
Nc1nccnc1C(=O)OCC(=O)N1CCN(S(=O)(=O)c2ccc(Cl)cc2)CC1	-1%	-6%	.	-18%	.	-3%	.	3%
CN1C(=O)CC(C(=O)Nc2ccccc2F)SC1=Nc1ccc2c(c1)OCO2 (stereo unspecified)	-12%[46.1 µM]	-11%	.	-7%	.	-2%	.	9%
CN1CCN(c2ccc(N)cc2)CC1	-14%	-11%	0.8%	-16%	-11%	-16%	1%	-21%
CS(=O)(=O)c1ccc2nc(NC(=O)CCS(=O)(=O)c3ccccc3)sc2c1	?	-4%	.	-20%	.	1%	-15%	?
O=C(CCS(=O)(=O)c1ccccc1)N1CCOCC1	12%[46.1 µM]	-11%	.	45%[activator]	.	4%	.	14%
CC(C)CCOc1ccc(/C=C2\CCn3c2nc2cc(C(=O)O)ccc2c3=O)cc1	11%	0%	.	-15%	.	0%	6%	0%
CC1CCc2c(sc3nc(CN4CCN(S(=O)(=O)c5ccccc5[N+](=O)[O-])CC4)[nH]c(=O)c23)C1 (stereo unspecified)	11%	0%	-2.2%	0%	-24%	5%	12%	1%
Cc1ccc(NC(=O)C2CCN(C(=O)NCc3ccccc3)CC2)cc1C	15%[46.1 µM]	-8%	.	-10%	.	6%	3%	-3%[46.1 µM]
O=[N+]([O-])c1c(O)c(Cl)cc(Cl)c1Cl (tested in a mixture with another compound)	?	-9%	.	0%	.	.	.	-10%[46.1 µM]
CCOc1ccc(S(=O)(=O)N2CCC(C(=O)NCCc3ccccc3)CC2)cc1	.	-3%	.	-2%	.	-9%	17%	.
O=C(CN(c1cccc(Br)c1)S(=O)(=O)c1ccccc1)N/N=C/c1cc([N+](=O)[O-])ccc1O	?	-9%	.	?	.	.	.	?
CCn1cc(C(=O)N[C@@H](C)C(=O)NCCCn2ccnc2)c(=O)c2cc3c(cc21)OCO3	.	-10%	.	-16%	.	2%	-2%	.
O=C(Cc1ccc(Cl)cc1)NC1CC(=O)N(c2ccc3c(c2)OCCO3)C1 (stereo unspecified)	.	.	-2.1%	3%	6%	.	.	0%[46.1 µM]
CCCn1nc2ccccc2c1P(=O)(N1CCOCC1)N1CCOCC1	1%	-18%	0.9%	-8%	0%	3%	-7%	0%
COc1ccc(OC)c(NC(=O)CCNC(=O)c2ccco2)c1	-10%[46.1 µM]	-6%	.	-7%	.	1%	15%	4%[46.1 µM]
O=S(=O)(c1ccccc1)c1nc(-c2ccco2)oc1Nc1ccccc1	0%	26%	-4.9%	31%[activator]	?	6%	-9%	?
O=C(COC(=O)CCSc1ccccc1)NCc1ccc(F)cc1	10%[46.1 µM]	10%	.	14%	.	-3%	.	-4%
Cc1ccc(-c2cc(C(=O)Nc3c(C)n(C)n(-c4ccccc4)c3=O)no2)cc1	?	-1%	.	-7%	.	0%	11%	7%[46.1 µM]
Nc1c(N=O)c(=O)[nH]c(=O)n1-c1ccccc1	31%	-13%	.	3%	.	.	.	1%
COc1ccc(-n2c(C)cc(-c3csc(NC(=O)c4ccc(S(=O)(=O)N(C)C)cc4)n3)c2C)cc1	-22%	12%	-1.0%	?	10µM*	2%	5%	2%
Cc1cc(C)cc(NC(=O)N(CCC#N)Cc2cccs2)c1	-18%[14.2 µM]	-7%	.	-4%	.	-2%	-2%	5%
NNC(=O)c1cccc(O)c1	?	6%	0.0%	-12%	-1%	15%	-4%	4%

High-throughput results: PubChem BioAssay, National Center for Advancing Translational Sciences (NCATS)
